Assay outcomes: PubChem BioAssay, National Center for Advancing Translational Sciences (NCATS)
AID923: qHTS Assay for Allosteric/Competitive Inhibitors of Caspase-1: Spectroscopic Profiling in AFC Spectral Region; 75,000 compounds, 1.1% hits; compound fluorescence, AFC spectral region (405/520 nm); almost no hit is shown here; Potency, µM (top dose mostly 57.5 µM), inactives show at the highest dose fluorescence increase, usual class: activators; active = well fitted activation curve with a large enough effect; inconclusive = small, poorly fitted or top-dose-only effect;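 also: potency is read from the fitted curve at half-maximal effect; 0% is about no effect; scaled to a free AFC standard on each plate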
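Compound autofluorescence profiled at 405 nm ex/520 nm em during kinetic caspase 1 run (50 nM enzyme, 5 uM Ac-WEHD-AFC, HEPES pH 7.5, 10 mM DTT). Titration up to 57 uM; baseline from regression intercept, normalized to AFC standard curve.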
Resorufin fluor: compounds fluorescent in resorufin spectral region | max dye-equivalent concentration, M | 59,000 compounds, 0.04% hits | Compound fluorescence, resorufin region 547/598 nm, buffer; stronger effect = higher value; active = above 10 nM dye equivalent; inconclusive = 1 to 10 nM; inactive = 1 nM or less; a few of its hits are not listed in these tables; also: highest value over a series up to 38 µM
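Read-out: intrinsic compound fluorescence at ex 547/em 598 nm after 15 min at RT in pH 8.0 Tris (100 mM). Values expressed as resorufin-equivalent concentration from per-plate standard series.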
TSHR agonist: TSH receptor (human) agonism | P16473 | Potency, µM (doses to about 57.1 µM), for inactives: at the highest dose activation, actives largely listed as activators | 73,000 compounds, 0.48% hits | HEK293-CNG-TSHR cells (CNG channel as cAMP sensor), membrane potential dye, cAMP; active = well fitted activation curve of enough size with the parental cells flat; inconclusive = any curve in the parental cells; inactive = parental cells flat and receptor cells flat or falling; also: potency is read from the fitted curve at half-maximal effect; % of control where 0% means no effect; weak receptor curves with flat parental cells got no call and are not listed
Target sequence (P16473 whole entry, looked up): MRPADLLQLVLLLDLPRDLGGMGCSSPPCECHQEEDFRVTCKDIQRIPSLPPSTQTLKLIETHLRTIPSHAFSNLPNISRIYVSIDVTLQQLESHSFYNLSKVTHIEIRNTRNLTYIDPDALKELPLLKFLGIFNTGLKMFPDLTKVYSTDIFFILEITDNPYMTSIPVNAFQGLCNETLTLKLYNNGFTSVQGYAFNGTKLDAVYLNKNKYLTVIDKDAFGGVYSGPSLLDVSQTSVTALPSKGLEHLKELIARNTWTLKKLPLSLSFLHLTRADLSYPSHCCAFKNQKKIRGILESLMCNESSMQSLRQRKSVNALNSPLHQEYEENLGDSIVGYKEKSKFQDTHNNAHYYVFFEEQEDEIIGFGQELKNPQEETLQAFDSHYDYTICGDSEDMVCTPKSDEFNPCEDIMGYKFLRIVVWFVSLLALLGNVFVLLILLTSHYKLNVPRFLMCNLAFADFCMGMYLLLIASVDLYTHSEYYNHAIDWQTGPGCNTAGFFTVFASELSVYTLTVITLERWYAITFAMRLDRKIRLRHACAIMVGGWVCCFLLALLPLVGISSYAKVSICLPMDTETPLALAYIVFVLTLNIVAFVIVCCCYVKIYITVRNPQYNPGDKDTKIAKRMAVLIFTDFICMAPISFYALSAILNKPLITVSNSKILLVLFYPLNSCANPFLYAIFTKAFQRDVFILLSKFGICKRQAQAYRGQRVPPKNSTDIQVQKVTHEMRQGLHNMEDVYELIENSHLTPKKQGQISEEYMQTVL
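HEK 293 cells stably expressing TSHR and a modified CNG channel, with CNG-only parental cells as counterscreen, were preloaded 60 min at room temperature with membrane potential dye containing 100 uM RO 20-1724. Compound exposure was 30 min, and depolarization was read as fluorescence at 590 nm.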
A488 fluor: compound fluoresces in the A488 spectral region; max dye equivalency, M; 59,000 compounds, 0.1% hits; compound autofluorescence, A488 spectral region, dye equivalency; stronger effect = higher value; active = above 10 nM dye equivalent; inconclusive = 1 to 10 nM; inactive = 1 nM or less; about half of its hits are not listed in these tables;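 also: highest value over a series up to 38 µM; compound alone in buffer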
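Read-out: relative fluorescence at 480/540 nm, expressed as Alexa 488 dye-equivalent concentration from a six-point A488 standard included per plate. Conditions: 100 mM Tris, pH 8.0; 15 min incubation, room temperature.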
A647 autofl: compound fluoresces in the A647 spectral region; 59,000 tested, under 10 active; max dye-equivalent concentration, M; Compound fluorescence, A647 channel (570/671 nm), Tris buffer; active means above 1 µM dye equivalent; inconclusive means 0.1 to 1 µM; inactive means 0.1 µM or less;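 also: values scaled relative to a standard on each plate; highest value over a series up to 38 µM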
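Compounds pinned into 100 mM Tris pH 8.0, 15 min at room temperature, then read with 570 nm excitation/671 nm emission filters. Fluorescence normalized to an on-plate six-point Alexa 647 standard curve, giving dye-equivalent concentration per compound concentration.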
The depositor's hits bear a star; i = inactive; ? = inconclusive; . = no result given; & = joins results of further samples; [ ] = dose if it differs, or a comment. Only part of the results is shown; rates above refer to the full screens.

Second line of a record – AID923, Resorufin fluor, TSHR agonist, A488 fluor, A647 autofl
N[C@@](C(=O)O)(c1ccc(P(=O)(O)O)cc1)C1CC1
    -1.6%, ., -1%, ., .
Cn1c(C(=O)NCc2ccco2)cc2c(=O)[nH]c3ccccc3c21
    -0.2%, i, 0%, i, 4.6e-08
O=P(/C(=N/O)Sc1ccccc1)(N1CCOCC1)N1CCOCC1
    0.6%, ., 3%, ., .
CCN(CC)C(=O)CSc1nnc([C@H](CCSC)NC(=O)OC(C)(C)C)o1
    1.7%, i, 14%, i, 2.6e-09
O=C(O)CCCn1c(=O)[nH]c2ccccc2c1=O
    0.9%, i, 6%, i, 6e-09
CC(=O)Nc1ccc(N=Cc2ccc[nH]2)cc1
    0.1%, ., 3%, ., .
CC(C)c1nnc(NC(=O)c2cccc(-n3cnnn3)c2)s1
    -0.5%, i, -6%, i, 3.8e-09
O=C(CN1CCCC1)NCC1(c2ccccc2)CCOCC1
    2.9%, i, ?, i, 4e-08
COc1ccc(C2CC(c3ccc(Cl)cc3)Nc3nc(NC(=O)c4ccco4)nn32)cc1 (centres undefined)
    0.3%, i, ., i, 1.4e-09
O=C(CN1CCN(c2ccccn2)CC1)N(c1ccccc1)c1ccc2ccccc2c1
    1.8%, i, ?, i, 1.4e-08
CC1(C)Cc2c(C#N)c(N3CCOCC3)nc(-c3ccccc3)c2CO1
    ., i, ., i, 1e-09
O=S(=O)(c1cccs1)N1CCN(Cc2ccccc2)CC1
    -1.4%, i, 1%, i, 1e-09
Cc1nn(C)c(C)c1S(=O)(=O)N(CC(=O)Nc1ccccn1)c1ccc(C(C)C)cc1
    -4.3%, ., 10µM*, ., .
O=C(NCc1cccnc1)c1cnn2ccccc12
    -2.2%, ., -3%, ., .
Cc1noc(-c2ccccc2OC(=O)c2ccccc2)n1
    0.9%, ., 25%, ., .
O=C(NC12CC3CC(CC(C3)C1)C2)c1cnccn1
    1.5%, i, 18%, i, 1.8e-09
O=C(Nc1c2c(nn1-c1ccc(F)cc1)CSC2)c1ccc(S(=O)(=O)N2CCOCC2)cc1
    0.9%, i, -5%, i, 4.3e-09
CCc1nc2n[nH]c(N)c2c2c1CCCC2
    ., i, ., i, 1.4e-09
COc1cc(C(=O)O)cc(OC)c1OCc1cc(C(=O)O)oc1C
    -1.4%, ., 5%, ., .
Cc1cc(C)nc(-n2nc(C)cc2NC(=O)CN2CCCC(C)C2)n1 (centres undefined)
    -1.7%, i, ?, i, 2.8e-08

The list continues:
Second line of a record – AID923, Resorufin fluor, TSHR agonist, A488 fluor, A647 autofl
c1ccc(OCCSc2ncnc3nc[nH]c23)cc1
    0.5%, ., ?, ., .
Cc1onc(-c2ccccc2Cl)c1C(=O)NCc1ccc(S(N)(=O)=O)cc1
    0.4%, ., 5%, ., .
CC1Oc2ccccc2N(Cc2cccnc2)C1=O (centres undefined)
    -2.2%, i, 7%, i, 1e-09
O=C(COC(=O)c1ccccc1NC(=O)c1ccco1)Nc1ccc2c(c1)OCO2
    0.8%, i, ?, i, 2.2e-08
COc1ccc(-c2nc(-c3cccc(C)c3)no2)cc1OC
    1.5%, i, ., i, 1.4e-08
c1ccc(-n2ncc3c(NCc4ccc5c(c4)OCO5)ncnc32)cc1
    -0.7%, i, 12%, i, 2.1e-08
COc1ccc(CCCc2nnc(SCC(=O)Nc3nc(C)cs3)n2C)cc1C
    1.4%, i, 8%, i, 1e-09
CCCC(C(=O)OCCN(CC)CC)(c1ccccc1)c1ccccc1
    0.7%, i, 20%[25.6 µM], i, 3.2e-08&1.9e-09
CCOC(=O)c1ccc(Nc2ncnc3c2cnn3C)cc1
    2.1%, i, 9%, i, 1.8e-08
Cc1ccc(NC2=NC(c3ccco3)n3c(nc(C)cc3=O)N2)c(C)c1 (centres undefined)
    -0.1%, i, 5%, i, 1e-09
O=C(CSc1nc2sc3c(c2c(=O)n1-c1ccccc1)CCCC3)NCc1ccco1
    0.6%, ., 9%, ., .
CC1CCN(c2nc3ccc(C(=O)O)cc3s2)CC1
    2.0%, ., -4%, ., .
O=C(NCCO)c1ccc(Cl)c(Cl)c1
    1.0%, ., 1%, ., .
O=C(CCn1c(=O)oc2ccccc21)N1CCN(c2ccc(F)cc2)CC1
    3.5%, ., 4%, ., .
COc1ccc(O[C@H]2C=C[C@@H](c3ccccc3)O[C@@H]2CO/N=C\[C@@H](C)[C@H](OCc2ccccc2)C(C)C)cc1
    4.0%[11.5 µM], ., 1%[11.4 µM], ., .
N#Cc1nc(N2CCCCC2)nc(N2CCOCC2)n1
    1.0%, i, 32%, i, 1e-09
CCC(C)NC(=O)CSC1=Nc2ccccc2C2=NC(CC(=O)NCc3ccc(F)cc3)C(=O)N12 (centres undefined)
    0.4%, i, 4%, i, 1e-09
CCSCc1nnc(SCC(=O)c2ccc(OC)cc2)n1C
    -0.1%, i, 8%, i, 3.9e-09
O=C(NCCN1C(=O)CSC1=O)C1CC(=O)N(c2ccccc2)C1 (centres undefined)
    -1.0%, i, 0%, i, 1e-09
O=C1c2oc3ccccc3c(=O)c2C(c2ccc(Br)cc2)N1c1ncccn1 (centres undefined)
    -1.0%, i, -13%, i, 1.9e-09

(cont.)
Second line of a record – AID923, Resorufin fluor, TSHR agonist, A488 fluor, A647 autofl
CC(CCN(C)C)OC(=O)c1ccc(C(C)c2ccccc2)o1 (centres undefined)
    0.6%, i, 7%, i, 8.7e-09
COc1ccc(CCNC(=O)c2[nH]c(C)c(C(C)=O)c2C)cc1OC
    0.8%, i, -6%, i, 1e-09
CCN(C(=O)Cc1cccs1)c1nnc(-c2cccnc2)s1
    -1.6%, i, -6%[11.4 µM], i, 2.6e-09
NS(=O)(=O)c1cc(C(=O)O)c(Cl)c([N+](=O)[O-])c1Cl
    1.2%[11.5 µM], i, 2%[11.4 µM], i, 4.6e-08
CCCCOCCCNS(=O)(=O)Cc1ccccc1
    0.6%, ., 3%[11.4 µM], ., .
COc1ccccc1OCc1nc(C#N)c(N2CC(C)CC(C)C2)o1 (centres undefined)
    -0.3%, ., ?, ., .
CCOC(=O)c1sc(NC(=O)CSc2nnc(-c3ccc(OC)cc3)n2CCOC)nc1C
    -0.1%, i, 16%, i, 3.8e-08
CC(C)C1(C)C(=O)N=C2c3ccccc3C(=O)N21 (centres undefined)
    -2.1%, i, -1%[11.4 µM], i, 6.7e-09
Nc1nc(Cl)nc2c1ncn2[C@@H]1O[C@@H](COP(=O)(O)OP(=O)(O)OP(=O)(O)O)[C@@H](O)[C@H]1O
    -2.8%, i, ., i, 2.7e-09
CCC(=O)Nc1cc2nn(-c3ccccc3)nc2cc1Cl
    -3.2%, i, 1%, i, 1.3e-09
Cc1cc(C)n(Cc2ccc(F)cc2)c(=O)c1C#N
    -2.2%, i, -3%, i, 3.2e-09
CCCCC(=O)Nc1ccc(NC(=O)C2CC2)nc1
    -0.9%, i, -9%, i, 4.6e-08
CCOc1ccc(C(C)C)cc1S(=O)(=O)n1nc(C)cc1C
    3.5%, i, ?, i, 2.3e-08
CCC(C)NC(=O)C1CC(c2ccc(OC)cc2)=NO1 (centres undefined)
    1.5%, i, -1%, i, 1e-09
O=C(COc1ccc(S(=O)(=O)N2CCCC2)cc1Cl)NC1CC1
    0.3%, i, 7%, i, 1e-09
COCCCn1c(SCC(=O)N2CC(=O)Nc3ccccc32)nnc1-c1ccoc1C
    0.9%, i, -15%, i, 4e-08
COc1cc(NC(=O)c2ccccc2)c(OC)cc1NC(=O)CN1CCOCC1
    -0.5%, i, 3%, i, 2e-08
Cc1cc(=O)n2nc(N3CCC(C(=O)NC4CCCc5ccccc54)CC3)sc2n1 (centres undefined)
    0.8%, i, -2%, i, 2.1e-08
CCc1ccc(-n2c(O)cnc2Nc2nc(C)cc(C)n2)cc1
    1.6%, ., -2%, ., .
CCOC(=O)N1CCN(C(=O)Cc2ccsc2)CC1
    -2.4%, i, -1%, i, 2.6e-08

Three of the compounds above, with bars between the fields:
canonical_smiles | AID923 | Resorufin fluor | TSHR agonist | A488 fluor | A647 autofl
Nc1nc(Cl)nc2c1ncn2[C@@H]1O[C@@H](COP(=O)(O)OP(=O)(O)OP(=O)(O)O)[C@@H](O)[C@H]1O | -2.8% | i | . | i | 2.7e-09
CCOc1ccc(C(C)C)cc1S(=O)(=O)n1nc(C)cc1C | 3.5% | i | ? | i | 2.3e-08
CCc1ccc(-n2c(O)cnc2Nc2nc(C)cc(C)n2)cc1 | 1.6% | . | -2% | . | .

Going on with the list.
Second line of a record – AID923, Resorufin fluor, TSHR agonist, A488 fluor, A647 autofl
NC(=O)CSc1nnc(-c2ccc(S(=O)(=O)N3CCCC3)cc2)n1CC1CCCO1 (centres undefined)
    1.8%, i, -2%, i, 8.1e-09
CCN(CC)C(=O)Cn1nc(-c2ccccc2O)nc1SCC(=O)Nc1ccc(OC)cc1
    0.2%, i, 4%, i, 6.4e-09
Cc1cccc(NC(=O)c2ccccc2O)c1C
    0.2%, ., ?, ., .
CCCCN(C(=O)NC(=O)Nc1nc2ccc(OC)cc2s1)S(C)(=O)=O
    -0.7%, i, -3%[11.4 µM], i, 1.2e-09
O=C1CC(Nc2ccccc2)C(=O)N1c1ccc(N2CCOCC2)cc1 (centres undefined)
    1.2%, i, 7%, i, 3.1e-08
Cc1[nH]c(=O)[nH]c(=O)c1S(=O)(=O)N1CCCC1
    ., i, ., i, 2.7e-09
Cc1ccc(CCNC(=O)C2CCN(S(=O)(=O)c3cccc4nsnc34)CC2)cc1
    0.3%, i, 2%, i, 3.2e-09
CCOC(=O)c1c(C)n(C)c2ccc(OC)c(NC(=O)CCN3CCSCC3)c12
    ., i, ., i, 4.4e-08
COc1ccc(-c2nc3c(n2O)CCCC3=O)cc1OC
    1.4%, i, -1%, i, 3.5e-08
CS(=O)c1nc(-c2ccc(Br)cc2)cc(-c2ccccc2)c1C#N (centres undefined)
    0.1%, i, ?, i, 1e-09
CCc1c(C)nc(SCC(=O)c2ccc(C)c(C)c2)[nH]c1=O
    0.5%, i, ?, i, 4.2e-08
COc1ccc(OC2C=CC(C#Cc3ccccc3)OC2CO)cc1 (centres undefined)
    -3.1%[11.5 µM], ., -2%[11.4 µM], ., .
CN(CCc1ccccn1)S(=O)(=O)c1ccc(F)cc1
    -0.5%, i, 2%, i, 5.3e-08
Nc1nc2nc(SCC(=O)N3CCCc4ccccc43)[nH]c2c(=O)[nH]1
    1.2%, i, -1%, i, 1e-09
CN1C(=O)CSc2ccc(NC(=O)Nc3ccccn3)cc21
    0.8%, i, ., i, 4.1e-08
COC(=O)C1C2C=CC3(CN(Cc4cccs4)C(=O)C13)O2 (centres undefined)
    6.2%, i, 7%, i, 1.9e-09
COc1ccc(-n2cnnc2SCCC#N)cc1
    -0.8%, i, 6%, i, 1.7e-08
Cc1cc2cc(CN(Cc3ccco3)C(=O)C3CCCCC3)c(=O)[nH]c2cc1C
    -0.6%, i, ., i, 1e-09
CCOC(=O)CCC(=O)O[C@H]1[C@H](O[C@@H]2[C@@H](C)[C@H](O[C@H]3C[C@@](C)(OC)[C@@H](O)[C@H](C)O3)[C@@H](C)C(=O)O[C@H](CC)[C@@](C)(O)[C@H](O)[C@@H](C)C(=O)[C@H](C)C[C@@]2(C)O)O[C@H](C)C[C@@H]1N(C)C
    ., i, ., i, 1e-09
COC(=O)[C@H](CCSC)NC(=O)N1CCN(Cc2ccccc2)CC1
    1.0%, i, 4%, i, 1.6e-08

(listing goes on)
Second line of a record – AID923, Resorufin fluor, TSHR agonist, A488 fluor, A647 autofl
COCC(=O)Nc1ccc(S(=O)(=O)NCCc2ccccc2)cc1
    -0.4%, i, -4%, i, 9.5e-09
O=C(CCn1cccc1)Nc1nccs1
    -1.1%, ., -1%, ., .
CNC(=O)c1c[nH]n2c(=O)c(Cc3ccccc3F)c(C)nc12
    1.7%, ., 0%, ., .
COc1ccc(Oc2ncc3nc(C)c(=O)n(CCC#N)c3n2)cc1
    -0.8%, i, ?, i, 1e-09
